VDR inhibitor: Inhibitors of the vitamin D receptor (VDR): qHTS; VDR-SRC2-3 peptide fluorescence polarization, 2 h; hit rate 0.93% among 400,000; Vitamin D3 receptor (Homo sapiens), P11473; Potency, µM, without a hit: max response, negative = inhibition, actives largely listed as inhibitors; active means well fitted inhibition curve with a large enough effect; inconclusive means small, poorly fitted or top-dose-only effect, or another doubt; inactive means no such curve, though single readings can be large or run the other way; further: series mostly up to about 120 µM
Target sequence (P11473 whole entry, looked up): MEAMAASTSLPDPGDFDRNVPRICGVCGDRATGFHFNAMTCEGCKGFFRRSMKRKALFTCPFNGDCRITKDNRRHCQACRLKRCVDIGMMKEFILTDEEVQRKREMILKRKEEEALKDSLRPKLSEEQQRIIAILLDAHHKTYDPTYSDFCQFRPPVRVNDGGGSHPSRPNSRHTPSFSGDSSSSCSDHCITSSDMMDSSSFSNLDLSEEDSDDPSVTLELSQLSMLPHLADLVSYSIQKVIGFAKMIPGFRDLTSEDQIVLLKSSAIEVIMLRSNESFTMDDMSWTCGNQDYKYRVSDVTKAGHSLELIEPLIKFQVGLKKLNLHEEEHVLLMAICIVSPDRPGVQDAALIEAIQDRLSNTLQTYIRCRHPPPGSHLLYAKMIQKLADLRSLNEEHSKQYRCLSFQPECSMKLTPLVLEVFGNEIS
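Reagent solutions, kept cold and dark, are dispensed first; compounds are then pinned in at 23 nl, plates briefly spun, and incubated 2 h at ambient temperature. Inhibition of VDR–SRC2-3 peptide binding is read by fluorescence polarization.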
An asterisk follows results filed as active; ? = inconclusive; & = joins results of further samples. On the % scale 0 is the no-effect control and ±100 the full control effect; potency means the concentration at half of the fitted maximal effect. Only part of the results is shown. The share of hits here may be higher or lower than overall.

mol | VDR inhibitor
O=C(COC(=O)C1=COCCO1)Nc1ccc(Cl)cn1 | 6%
O=C(Nc1nccs1)c1ccc2nccnc2c1 | -7%
Cc1cc(OC(=O)c2ccc3ccccc3c2)c([N+](=O)[O-])c(=O)[nH]1 | 13%
O=C(CN1C(=O)NC2(CCOc3ccccc32)C1=O)Nc1ccc(Br)cc1F (configuration not stated) | 9%
CN(C)S(=O)(=O)c1cc(NC(=O)Cn2ccsc2=N)ccc1Cl | -14%
O=c1[nH]n2c(=O)c3c([nH]c2c1N=Nc1cccc(Cl)c1)CCCC3 | 1%
Cc1ccc(N/N=C(/Sc2nnnn2-c2ccccc2)C(=O)c2ccccc2)cc1 | 12%
CC(=O)c1cccc(NC(=O)CSc2nnc3ccc(-c4ccc(Br)cc4)nn23)c1 | 4%
CCN(CC)C(=O)CSc1ncnc2c1cnn2-c1ccccc1 | -5%
CCOC(=O)c1ccc(NC(=S)NCCCN2CCOCC2)cc1 | -6%
COc1ccccc1N(C)S(=O)(=O)c1ccc(C(=O)Nc2ccc(N3CCOCC3)cc2)cc1 | -7%
COc1ccc(/C=N/Nc2ncnc3c2[nH]c2ccc(C)cc23)c(OC)c1OC | -13%
C=CCn1c(SCC(=O)Nc2ccc(F)cc2)nnc1-c1cnccn1 | -15%
Cc1cc(-n2c(=O)c(C#N)cc3c(=O)n4ccccc4nc32)no1 | 15%
COc1ccc(-c2coc3c2c(C)cc2oc(=O)cc(C)c23)cc1 | 3%
COc1ccc(C(=O)/C=C/c2ccc(O)cc2)c(O)c1C/C=C(\C)CCC=C(C)C | -6%
CCOc1ccc(CNS(=O)(=O)c2ccc3[nH]c4c(c3c2)CCCC4)cc1OC | -15%
COCCCN1C(=O)/C(=C/c2ccc(CNS(=O)(=O)c3ccccc3)o2)C(C(=O)OC)=C1C | -8%
CN(C)CCCNC(=O)/C(=C\c1ccc(-c2ccc(Br)cc2)o1)NC(=O)c1ccccc1 | -22%
Cc1cccc(OCc2nnc(SCn3nnc4ccccc4c3=O)o2)c1 | 8%
CCOc1ccc(NC(=O)c2cnc(Nc3ccccc3OC)c3ccccc23)cc1 | -15%
CCC(=O)c1ccc(OCC(=O)OCC(=O)NC2CCCCCCC2)cc1 | 14%
CC1(c2ccc3ccccc3c2)NC(=O)NC1=O (configuration not stated) | -5%
CCOC(=O)C(=O)Nc1cc(C)nn1-c1nc2ccccc2[nH]1 | 3%
O=C(Cn1nc(-c2ccc3c(c2)OCCO3)ccc1=O)Nc1ccc(-n2cnnn2)cc1 | -18%
COc1ccc(NC(=S)N2CCN(C(=O)c3ccco3)CC2)cc1OC | -7%
COc1cccc(C(=O)Nc2ccc(-n3nncc3-c3ccc(Br)cc3)cc2)c1OC | 2%
Cc1nonc1C1CCCN1Cc1cn[nH]c1-c1ccc(-c2ccccc2)cc1 (configuration not stated) | -14%
O=C(CCCn1c(SCc2ccccc2F)nc2ccccc2c1=O)NCC1CCCO1 (configuration not stated) | -11%
CC1CCN(CC(=O)N2CCCc3c2c(=O)oc2ccc(OCc4ccccc4)cc32)CC1 | -2%&6%
CCN(CCCNC(=O)CNC(=O)c1nn(-c2ccc(OC)cc2OC)c(=O)c2ccccc12)c1cccc(C)c1 | -10%
O=C(Nc1nc2c(s1)CCCC2)Oc1ccccc1 | -1%
Cc1nc2ccccc2c(C(=O)O)c1-c1ccccn1 | 0%
CCC(Oc1nc2ccccc2nc1-c1ccccc1NC(C)=O)C(=O)c1ccccc1 (configuration not stated) | 14%
CCCCCCCCCCCCCCOc1ccc(C(=O)O)o1 | 11µM*
Cc1cccc(OCCNc2ccc(C(F)(F)F)cc2[N+](=O)[O-])c1 | -2%
COC(=O)/C=C1\NCCSC1=O | 4%
Cc1cccc(NCc2cc(Cl)ccc2O)n1 | -4%
CC(CNC(=O)COc1ccccc1)OC(=O)Nc1ccc(Cl)c(Cl)c1 (configuration not stated) | -12%
COCCN1C(=O)N[C@@H](c2cccs2)C(C(=O)OC)=C1C | 2%&-14%
CCOC(=O)c1nnc(-c2ccccc2)nc1Oc1ccc(Cl)cc1 | 5%
O=C(CSc1nc2ccccc2nc1Cc1ccc(F)cc1)Nc1ccc2c(c1)OCO2 | 6%
COc1cc(/C=C(/C#N)c2nc3ccccc3[nH]2)ccc1Oc1ncccc1[N+](=O)[O-] | 11%
CCOC(=O)c1ccc(N2CCOCC2)c(NC(=O)COCC(=O)O)c1 | -20%
CCOc1ncccc1C(=O)OCC(=O)c1c(N)n(C)c(=O)n(C)c1=O | 3%

Copied from above, 7 compounds:
mol | VDR inhibitor
CCN(CCCNC(=O)CNC(=O)c1nn(-c2ccc(OC)cc2OC)c(=O)c2ccccc12)c1cccc(C)c1 | -10%
O=C(Nc1nc2c(s1)CCCC2)Oc1ccccc1 | -1%
Cc1nc2ccccc2c(C(=O)O)c1-c1ccccn1 | 0%
CCC(Oc1nc2ccccc2nc1-c1ccccc1NC(C)=O)C(=O)c1ccccc1 (configuration not stated) | 14%
CCCCCCCCCCCCCCOc1ccc(C(=O)O)o1 | 11µM*
Cc1cccc(OCCNc2ccc(C(F)(F)F)cc2[N+](=O)[O-])c1 | -2%
COC(=O)/C=C1\NCCSC1=O | 4%

Next entries.
mol | VDR inhibitor
Cc1cc(C(=O)CSc2nc(N)cc(N)n2)c(C)n1CCc1ccc(F)cc1 | 0%
CCOC(=O)c1ccc(NC(=S)N2CCSC2c2ccc(Cl)cc2)cc1 (configuration not stated) | -14%
CC1Oc2ccccc2N(CC(=O)NCc2cccs2)C1=O (configuration not stated) | 3%
Cc1ccc(C)c(N2C(=O)c3cc(N4CCOCC4)c([N+](=O)[O-])cc3C2=O)c1 | -7%
C/C(=N\NC(=O)Cc1ccccc1)c1ccc(Br)s1 | -7%
CCn1c(CN2CCCCC2)nc2cc(S(=O)(=O)N3CCCCC3)ccc21 | 14%
Cc1cccc(NC(=S)N2CCOCC2)c1C | -7%
CCOC(=O)C1=CN(Cc2cccc(F)c2)S(=O)(=O)N(C)C1c1ccc(C(F)(F)F)cc1 (configuration not stated) | -8%
CC1(c2cccc(Br)c2)NC(=O)NC1=O (configuration not stated) | -3%
N#Cc1c(NC(=O)C(=O)NCCCN2CCOCC2)sc2c1CCCC2 | -25%
COc1cccc(/C=C/C(=O)OCC(=O)NCC2CCCO2)c1OC (configuration not stated) | 9%
CN1c2cccc3cccc(c23)N(C)C1c1cccs1 | 6%
COc1ccc(N2C(=O)c3ccccc3NC23CCCCC3)cc1 | 4%
Cc1ccc(S(=O)(=O)Nc2ccccc2-c2ccccc2)cc1 | 1%
N#Cc1c(N)nc2c(c1-c1ccncc1)CCCCC2 | 9%

Continuation:
molecule	VDR inhibitor
COc1cccc(C2=CC(c3ccc(OC)c(OC)c3)NC(=S)N2)c1 (configuration not stated)	8%
COCCN(C(=O)Cc1coc2cc(C)c(C)cc12)c1c(N)n(Cc2ccccc2)c(=O)[nH]c1=O	-11%
CC1CCCC(C)N1C(=O)COC(=O)c1ccc2c(c1)OCO2 (configuration not stated)	27%
N=c1n(CC(=O)c2ccc(Br)cc2)c2ccccc2n1Cc1ccccc1	-9%
COc1ccccc1C(=O)COC(=O)C(NC(=O)Cc1ccccc1)C(C)C (configuration not stated)	-2%
O=C(NC(Nc1nc2ccc([N+](=O)[O-])cc2s1)(C(F)(F)F)C(F)(F)F)c1cccnc1	6%
CN(C)C(=O)c1nc2ccc(Cl)cn2c1CNCc1ccccc1OC(F)(F)F	?
COc1ccc(C2=CC(=O)C[C@H](COCc3ccccc3)N(C(=O)OC(C)(C)C)O2)cc1	-24%
CCCn1c(=O)c2sccc2n2c(CCCC(=O)NCCc3ccc(Cl)cc3)nnc12	0%
Cn1ccnc1SCc1cn2cc(Br)ccc2n1	10%
Cc1ccc(Cl)cc1NS(=O)(=O)c1ccc(N2CCCCS2(=O)=O)cc1	9%
CCc1cc2c(=O)c(-c3cscn3)coc2cc1O	5%
CCOC(=O)c1ccc(NC(=O)c2cccc(C)c2[N+](=O)[O-])cc1	-14%
Cc1cccc(N2CCN(Cc3cnc(Cl)s3)CC2C)c1 (configuration not stated)	-4%
O=C(COc1ccc(S(=O)(=O)N2CCOCC2)cc1)NCCc1ccccc1	-3%
S=C=Nc1cccc(NC(=S)NCCCCNC(=S)Nc2cccc(N=C=S)c2)c1	?
CC1(C(=O)OCC(=O)Nc2nnc(-c3ccccc3)o2)CC1(Cl)Cl (configuration not stated)	4%
O=C(NC1CCN(Cc2ccccc2)CC1)c1ccccc1NS(=O)(=O)c1ccc(F)cc1	-6%
COc1ccccc1C(=O)Nc1ccccc1C(=O)NCc1ccco1	-6%
COc1ccc(-c2cc([C@H]3[C@@H]4C=CCC[C@@]4(C)C(=O)N3Cc3ccccc3)ccc2F)cc1OC	-18%
CCC(C)N1CC(=O)N2Cc3[nH]c4ccccc4c3C[C@H]2C1=O (some centres not stated)	-1%
CCC(=O)Nc1c(S(=O)(=O)c2ccc(C)cc2)c2nc3ccccc3nc2n1C(C)c1ccccc1 (configuration not stated)	-8%
Cc1ccccc1Cn1c(SCc2ccc(C(=O)NCc3cccs3)cc2)nc2ccncc21	-5%
COC(=O)c1ccc2[nH]c3cccc(/C(=C/c4ccccc4)c4ccccc4)c3c2c1	10%
COCCCNC(=O)CSc1ccsc1[N+](=O)[O-]	8%
O=C(OCC(=O)C12CC3CC(CC(C3)C1)C2)c1ccc(O)cc1O	0%
C=CCn1c(SCc2nc3sc(C(=O)O)c(C)c3c(=O)[nH]2)nnc1-c1ccc(C(C)(C)C)cc1	-10%
COc1cccc(-c2nn(-c3ccccc3)cc2/C=C\C(=O)c2cccs2)c1	8%
CC(C)c1ccc(NC(=O)C2CCN(S(=O)(=O)c3cccc4nonc34)CC2)cc1	-1%
O=C(NNc1ccccc1[N+](=O)[O-])Nc1ccc(Cl)c(Cl)c1	-10%
COc1ccc(C(=O)NCC2CCCO2)cc1OC (configuration not stated)	13%
Cc1ccc(C(=O)OCC(=O)NC2CCCCC2)s1	-8%
COc1ccc(-c2nc3cnc(N4CCOCC4)nc3n(C[C@H]3CCCO3)c2=O)cc1	14%
Cc1cccc(N2CCN(c3cccc(C)c3)C2c2cccnc2)c1	5%
Cc1[nH]c2ccccc2c1Cc1n[nH]c(=S)o1	-20%
Cc1cccc(C(=O)OCCN2CCOCC2)c1	-14%
O=C(Cn1nnc(-c2ccc(N3CCOCC3)cc2)n1)OC1CCCCC1	-6%
O=C1c2ccccc2S(=O)(=O)c2cc(C(=O)N3CCCC3)ccc21	-18%
COc1ccc(C2C3C=CCC(c4ccccc4)C3C(=O)N2Cc2ccccc2)cc1Cl (configuration not stated)	11%
CC(C)(CC(=O)O)CC(=O)Nc1ccccc1Oc1ccccc1	-2%
CC(=O)N1N=C(c2ccco2)CC1c1ccc(Cl)o1 (configuration not stated)	3%
O=C(CSc1nc2ccc(Nc3nc(N4CCOCC4)nc(N4CCOCC4)n3)cc2s1)NCc1ccco1	-8%
Cc1ccc(Sc2ccc(N3CCC(C(=O)Nc4ccc(Cl)cc4)CC3)nn2)cc1	3%
CC(C)CCNC(=O)c1ccc2c(SCC(=O)O)c3c(nc2c1)CCCC3	?
CCc1c(C)nc2cc(-c3cccc(Br)c3)[nH]n2c1=O	15%
COCCN1CCN(C(=O)c2cc(COc3cncc(Cl)c3)on2)CC1	-9%
Cc1ccc(C)c(NC(=O)CN(C)C(=O)c2cccc(S(=O)(=O)N3CCN(Cc4ccccc4)CC3)c2)c1	-7%
O=C(COC(=O)Cc1n[nH]c(=O)c2ccccc12)Nc1ccc(Cl)cc1F	-14%
COc1ccc(S(=O)(=O)NCc2ccc(C(=O)N(C)Cc3ccco3)cc2)cc1	-9%
CSc1cccc(NC(=S)N(CCCN2CCCC2)Cc2cccs2)c1	-18%
COc1cc(/C=C(\NC(C)=O)C(=O)Nc2ccc(NC(C)=O)cc2)ccc1OC(C)=O	-14%
N#C/C(C(=O)Oc1ccccc1)=C1\C=Cc2ccccc2N1	1%
NNS(=O)(=O)c1ccc(Cc2ncc(C(F)(F)F)cc2Cl)s1	-3%
COc1ccc(Oc2c(Cl)cnn(-c3ccccc3)c2=O)cc1	-1%
CCSC1=NN2CCS(=O)(=O)N=C2S1	12%
COc1ccc2c(CC(=O)OCC(=O)Nc3cccc(C)c3)coc2c1	-19%
Cc1ccccc1NC(=O)Cc1nnc(SCC(=O)c2ccc(Br)cc2)n1C	-17%
Cc1cc(C)c(S(=O)(=O)Nc2ccccn2)c(C)c1	0%
CNC(=O)C1CCC(Cn2c(=O)c3sccc3n(CC(=O)Nc3ccc(C)c(C)c3)c2=O)CC1 (configuration not stated)	9%
COc1ccc(NC(=O)CN(C)C(=O)c2cccc(S(=O)(=O)Nc3ccccc3Cl)c2)cc1	-3%

Reformatted as labelled records: entries from further up.
SMILES: Cc1ccc(Cl)cc1NS(=O)(=O)c1ccc(N2CCCCS2(=O)=O)cc1
  VDR inhibitor: 9%
SMILES: CCc1cc2c(=O)c(-c3cscn3)coc2cc1O
  VDR inhibitor: 5%

Remaining list, next part
molecule	VDR inhibitor
Nn1c(Cc2ccccc2F)nnc1SCCOc1ccc(Cl)cc1	-6%
CCOCCCNC(=O)C(NC(=O)C1CCC(=O)N1)c1ccc(C)cc1 (configuration not stated)	-7%
COc1ccc(CNc2ncncc2-c2ccc(N(C)C)cc2)c(OC)c1	?
COc1cccc(-n2cc(CNC(=O)C3CCC(=O)N(C4CC4)C3)cn2)c1 (configuration not stated)	-2%
COc1cc(CNn2cn[nH]c2=S)cc(Cl)c1OCc1ccccc1	-2%
O=C(NCc1cccnc1)C1CC(=O)N(C2CCCCC2)C1 (configuration not stated)	7%
COc1ccc(OC)c(NC(=S)N2CCC(C(O)(c3ccccc3)c3ccccc3)CC2)c1	-13%
O=C(CCN1C(=O)c2ccccc2C1=O)N1CCN(c2ccccc2)CC1	5%
